Source: PubChem BioAssay
UCH37 inh: blocks the human deubiquitinase UCH37. AID 588478. purified proteasome/UCH37, Ub-AMC cleavage fluorescence. inhibition, % (concentration not given with the values). hit rate 0.33% among 330,000;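 active = mean of two replicates above 20%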;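 also: 0% = compound-free wells with enzyme and 100% = wells lacking proteasome; stock transfer was 100 nL into about 20 µL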
Target sequence (Q9Y5K5 whole entry, looked up): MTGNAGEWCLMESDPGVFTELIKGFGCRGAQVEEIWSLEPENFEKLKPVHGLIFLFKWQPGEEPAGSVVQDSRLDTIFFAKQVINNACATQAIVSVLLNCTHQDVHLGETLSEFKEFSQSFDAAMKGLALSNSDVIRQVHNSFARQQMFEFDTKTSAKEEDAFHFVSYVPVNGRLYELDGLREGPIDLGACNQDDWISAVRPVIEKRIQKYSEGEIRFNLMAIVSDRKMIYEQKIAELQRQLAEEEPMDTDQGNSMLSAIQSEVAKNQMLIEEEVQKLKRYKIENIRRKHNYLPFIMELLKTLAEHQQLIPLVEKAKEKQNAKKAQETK
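Signal – fluorescence, ex 355 nm, em 460 nm · System – Proteasome-bound UCH37 · Input – 0.15 nM proteasome as dispensed · Timing – 30 min preincubation with enzyme, 25 min cleavage at room temperature · Read-out basis – percent inhibition of cleavage signal versus uninhibited and no-proteasome wells · Medium – Tris-HCl pH 7.4 with ATP-MgCl2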
Beta apoptosis: beta cell apoptosis inhibition; hit rate 0.8% among 300,000; AID 435005; INS-1E cytokine-induced death, ATP luminescence, 48 h; percent of positive-control rescue, neutral wells zero; protection from apoptosis, % (concentration not given with the values);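 active = all replicates at 75% or more, or half of them and the mean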;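 also: 0% = cytokine-treated negative control wells and 100% = positive control rescue; higher means more ATP so stronger rescue from cytokine killing; wells of about 40 µL received 100 nL stock; the first replicate is given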
MLL AF4-AF9 inh: blocks AF4 peptide binding to human AF9; AlphaScreen, biotin-AF4 peptide binding to FLAG-AF9; inhibition, % at 10 µM; hit rate 0.47% among 350,000; AID 651704;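 active = every replicate reaching a set inhibition limit, whatever the replicate mean, cut at about 25% in these data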;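 also: 0% = plate neutral control median and 100% = total signal loss; the record names both 10 and 1 µM as test concentration; the first replicate is given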
Target sequence (P42568 whole entry, looked up): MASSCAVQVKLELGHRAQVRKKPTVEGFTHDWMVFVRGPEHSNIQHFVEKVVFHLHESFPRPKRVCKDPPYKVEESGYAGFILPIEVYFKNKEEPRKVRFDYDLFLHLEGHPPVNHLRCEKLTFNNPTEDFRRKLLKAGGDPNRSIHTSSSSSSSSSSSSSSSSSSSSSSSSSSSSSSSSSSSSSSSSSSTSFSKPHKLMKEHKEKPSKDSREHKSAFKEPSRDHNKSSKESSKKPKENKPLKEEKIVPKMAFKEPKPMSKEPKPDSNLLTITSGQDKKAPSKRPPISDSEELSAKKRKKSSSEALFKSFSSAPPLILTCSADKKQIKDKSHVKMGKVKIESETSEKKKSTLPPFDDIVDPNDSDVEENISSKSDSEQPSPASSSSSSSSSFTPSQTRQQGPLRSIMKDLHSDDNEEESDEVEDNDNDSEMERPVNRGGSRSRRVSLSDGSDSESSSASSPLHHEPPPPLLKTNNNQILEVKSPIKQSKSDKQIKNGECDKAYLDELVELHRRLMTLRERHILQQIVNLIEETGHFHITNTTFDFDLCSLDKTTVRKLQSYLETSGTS
T cruzi repl: T. cruzi replication inhibition; T. cruzi beta-gal in NIH3T3, luminescence, 90 h; inhibition, % (concentration not given with the values); AID 1885; hit rate 1.4% among 300,000;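 active = mean inhibition across valid replicates above about 55%, limit read from the data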;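 also: signal also drops with host cell toxicity which is not excluded here; 0% = plate median of DMSO wells and 100% = zero luminescence signal; higher percent means less beta-gal luminescence so fewer parasites; stock transfer was 50 nL into about 50 µL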
FGF22 binding: FGF22 (human) thermal shift binding | recombinant FGF22 thermal shift, SYPRO orange fluorescence; percent of sucrose octasulfate shift, DMSO zero | calls only at 9.99 µM | hit rate 1.5% among 340,000 | AID 651658;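 active = melting point raised past a set limit in the mean and every replicate; three in four hits are not shown here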
Target sequence (Q9HCT0 whole entry, looked up): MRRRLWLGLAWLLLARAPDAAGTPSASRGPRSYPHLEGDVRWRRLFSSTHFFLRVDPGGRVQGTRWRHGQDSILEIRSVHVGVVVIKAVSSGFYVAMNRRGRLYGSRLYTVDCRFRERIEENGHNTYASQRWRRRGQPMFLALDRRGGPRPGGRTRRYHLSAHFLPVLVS
Ecoli rRNA inh: inhibits bacterial ribosomal RNA function over humanized ribosomes. E. coli WT GFP vs humanized-ribosome RFP mutants, fluorescence, 24 h; stronger effect = lower value; DMSO median 0, no signal -100. GFP signal change (wild-type ribosome), % (test concentration not listed). hit rate 1.6% among 350,000;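 active = significant combined selectivity score with lowered wild-type GFP, culture density cut under 30%, mutant RFP and density less affected; inactive = any of these conditions unmet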; also: one replicate is shown; some compounds called inactive have numbers as strong as hits
A1 inh: inhibitors of the anti-apoptotic protein A1, read as caspase activation; MEF A1-2A-BIM cells, Caspase-Glo 3/7 luminescence, 3 h; percent of clofoctol response, vehicle zero; caspase activation, % (test concentration not listed); hit rate 0.066% among 330,000; AID 2462;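 active = over half of replicate activation scores above 10%, or exactly half above 10 with the replicate mean above 10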;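 also: wells of about 30 µL received 50 nL stock; many hits fall short of the cut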
E coli growth: inhibitors of Escherichia coli growth; OD600, 23 h; stronger effect = lower value; OD600 absorbance (no concentration beside the values); hit rate 0.21% among 330,000;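 active = OD600 absorbance below the run mean of sample wells minus 3.6 SD, in any replicate, cut at about 0.56 in these data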;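 also: stock transfer was 300 nL into about 60 µL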
Ecoli rRNA inh OD600: recorded beside Ecoli rRNA inh, whose call it bears; OD600 change, %; measured here: OD600 growth;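 optical density of the mix in the first replicate; 0 = DMSO median and -100 = no signal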
Ecoli rRNA inh RFP: further read-out of Ecoli rRNA inh, marked with its call; RFP signal change, %; measured here: RFP humanized mutant strains;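 first replicate; 0 = DMSO median and -100 = no signal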
The depositor's hits bear a star; i = inactive; . = no result given; & = joins results of further samples. A portion of the library; rates above refer to the full screens.

Compound,A1 inh,Ecoli rRNA inh,T cruzi repl,UCH37 inh,FGF22 binding,Beta apoptosis,MLL AF4-AF9 inh,Ecoli rRNA inh OD600,Ecoli rRNA inh RFP,E coli growth
CN(C(=O)COC(=O)/C=C/c1ccc2c(c1)OCO2)c1c(N)n(Cc2ccccc2)c(=O)[nH]c1=O,-1.1,-0.4,-10.9,-33.6,i,0.7,-6.9,3.8,0.6,0.686
C[C@H](CO)N1C[C@H](C)[C@@H](CN(C)C(=O)Nc2ccc3c(c2)OCO3)Oc2c(NS(=O)(=O)c3ccc(F)cc3)cccc2C1=O,0.1,-0.6&8.7,.,2.9,i,3.6,-1.8&-3.3,2.2&13.1,-1.0&-4.8,.
COc1ccccc1N1CC(C)(C)C(=O)N(C(=O)c2ccc(C)cc2)C1=S,-0.2,12.4,-25.9,2.1,i,1.9,4.0,6.8,5.4,0.694
C=CCn1c(C)nnc1SCC(=O)c1[nH]c(C)c(C(C)=O)c1C,0.2,-1.6,3.1,6.4,i,-7.4,2.0,1.4,0.8,0.676
CCN(CC)c1ccc(NC(=O)COC(=O)CCC(=O)c2cccs2)cc1,-0.2,5.9,.,1.6,i,2.8,11.0,-7.8,0.9,0.678
Nc1c(C(=O)N/N=C/c2cccnc2)oc2nc(-c3ccccc3)cc(-c3ccco3)c12,0.0,.,-35.8,.,i,-3.2,0.5,.,.,.
Cc1ccc2cc(CCNS(=O)(=O)c3ccc(F)cc3)c(=O)[nH]c2c1C,0.4,-9.8,-2.6,.,i,-4.9,-7.4,-32.1,-1.1,.
Cc1ccc(-c2nnn(Cc3nc(N)nc(N4CCOCC4)n3)n2)cc1,-1.2,.,3.5,3.1,.,-1.4,.,.,.,0.725
CC(C)(C)c1ccc(SCCc2cccnc2)cc1,0.2,.,26.3,0.4,i,-2.0,-0.9,.,.,0.661
Cc1cccc(C(=O)NCc2ccco2)c1,0.2,4.4,-11.7,2.5,i,-13.4,0.0,9.2,1.7,0.708
O=C(C[C@H]1C/C=C\C[C@H](NC(=O)OCC2c3ccccc3-c3ccccc32)C(=O)OC[C@H]2CCCN2C1=O)NCCO,0.6,0.4,.,0.4,i,10.1,-2.3,-12.7,-4.8,.
O=C(c1cccc(C(F)(F)F)c1)C1CCCN(C(=O)/C=C/c2cnc[nH]2)C1 (stereo not given),1.9,-6.2,19.2,7.8,i,-5.4,-0.3,-15.1,-0.2,0.732
Cc1cc(=O)oc(C)c1C(=O)N1CCN(Cc2ccc3c(c2)OCO3)CC1,-1.1,.,7.6,0.7,.,-7.1,.,.,.,0.684
CCS(=O)(=O)N1Cc2ccccc2CC1C(=O)Nc1ccc(OC)cc1 (stereo not given),1.0,4.0,2.1,5.5,i,-9.6,-1.1,-2.4,-0.1,0.707
O=C(Nc1cccc(Cl)c1)c1ccc(Cn2cc(Cl)cn2)cc1,-0.7,-26.1*,4.5,0.6,i,11.3,1.8,-18.7*,-10.7*,0.652
O=C(NNC(=O)C1CCN(S(=O)(=O)c2ccccc2)CC1)c1ccccc1O,0.5,1.1,-2.8,-21.0,i,45.3,-3.2,-2.6,1.0,0.711
N=c1c2c3c(sc2ncn1N)CCCC3,-0.5,-11.4,-7.0,4.0,i,0.1,0.5,-15.5,-2.1,0.665
CC1CCCN(S(=O)(=O)c2ccc([N+](=O)[O-])cc2)C1 (stereo not given),0.7,16.2,1.5,4.2,i,2.2,0.3,18.3,0.2,0.693
OC(CNCc1ccccc1F)COc1cccc2ccccc12 (stereo not given),-0.1,0.8,12.5,1.4,i,10.4,-1.2,-28.4,7.3,0.68
O=S(=O)(NCc1ccccn1)c1cc(OCC(F)(F)F)ccc1OCC(F)(F)F,0.3,9.5,-0.4,3.8,i,0.8,4.4,10.2,-0.7,0.67
COc1ccc(S(=O)(=O)NCCCCOc2ccc(Cl)cc2)cc1,0.6,-52.9,11.9,3.4,i,45.4,0.1,-79.0,-14.2,0.702
Cc1cc(C)n2nc(C(=O)OCC(=O)N(C)CC(=O)Nc3ccccc3Cl)nc2n1,0.7,7.5,-0.9,-0.5,i,-2.6,0.0,1.8,2.8,0.677
COc1ccc(CCC(C)NCc2cccc(Br)c2)cc1 (stereo not given),-0.9,-6.7,4.5,-0.1,i,-6.6,1.8,-22.6,-4.3,0.649
CCOC(=O)Cn1nc(NC(=O)COc2ccc(F)cc2)cc1C,0.6,1.7,-6.5,0.6,i,3.5,-5.0,2.7,0.2,0.685
Cc1ccc(CNC(=O)CC2(CC3=NS(=O)(=O)c4ccccc4N3)CCCC2)cc1,0.0,-27.9,4.9,3.5,i,6.5,-3.3,-54.6,8.0,0.74
CCn1nc(C)cc1C(=O)OCC(=O)c1ccc(Cl)cc1,-0.4,-5.4,-19.7,4.8,i,-4.0,-2.5,-4.2,0.7,0.68
O=C(CN1CCN(C/C=C/c2ccccc2)CC1)Nc1ccccc1C(=O)NC1CC1,0.2,3.6,3.6,-1.2,i,1.6,-1.6,4.4,5.4,0.64
COCCNCc1cc(C)n(-c2cc(S(=O)(=O)N3CCOCC3)ccc2N2CCCC2)c1C,.,.,.,1.5,i,.,5.5,.,.,0.632
COc1cccc(CNC(=O)N[C@@H](CC(C)C)C(=O)O)c1,-0.7,.,-8.3,2.5,.,1.5,.,.,.,.
CC(C)C(=O)Nc1nc2cc3c(cc2s1)OCCO3,-3.9,-24.8,-8.4,0.8,i,29.6,0.3,-23.1,-3.8,0.638
Cc1nn(CC(=O)N2CCCCC2)c(=O)c2nn(-c3ccccc3)c(C)c12,-0.1,-1.1,13.1,5.3,i,-3.5,-1.4,-0.7,-0.6,0.665
O=Cc1s/c(=N\S(=O)(=O)c2ccccc2)n(CCCCl)c1Cl,.,4.3,81.4*,.,i,.,-1.9,1.6,18.1,.
COC(=O)Cc1[nH]n(-c2nc3ccccc3s2)c(=O)c1C(C)=Nc1ccc(OC)cc1,-6.8,-1.9,8.6,-10.9,i,6.6,1.8,5.2,6.3,0.671
Clc1ncn(C23CC4CC(CC(C4)C2)C3)n1,-0.9,.,-10.2,1.6,.,-3.5,.,.,.,0.761
O=C(Nc1ccccc1Cl)c1ccc(COc2ccc3c(c2)CCC3)cc1,0.0,.,-17.8,2.5,.,-4.8,.,.,.,0.702
COc1ccc(OC)c(C2C(C(=O)c3cccs3)=C(O)C(=O)N2c2cc(C)on2)c1 (stereo not given),-0.5,.,-1.4,8.9,.,-8.9,.,.,.,0.695
COCCCNC(=O)[C@H](CSCc1ccccc1)N1Cc2ccccc2C1=O,-0.5,-1.8,-4.8,1.4,i,-2.4,-4.5,-4.0,-2.8,0.667
Cc1cc(N=Cc2c(O)ccc3cc(Br)ccc23)no1,0.4,2.4,-6.5,0.3,i,-3.7,-8.7,0.1,-4.2,0.641
CCC(C(=O)O)n1nnc(-c2ccc(-c3ccc(OC)cc3)cc2)n1 (stereo not given),-1.2,.,-2.8,-2.6,.,9.5,.,.,.,0.673
C/C(=N\NC(=O)c1cccc(C)c1O)c1ccc(NC(=O)Cc2ccccc2)cc1,0.8,-7.0,-4.8,.,i,-3.4,-1.5,2.3,1.5,.
COc1cccc(NC(=O)CN(C)C(=O)/C=C/c2ccc3ccccc3n2)c1,-0.5,10.3,-4.4,-2.1,i,.,-1.6,10.4,3.7,0.63
O=C(COC(=O)c1cccc(S(=O)(=O)N2CCCCC2)c1)NCc1ccccc1,.,-6.3,.,1.5,i,.,-0.6,-8.9,1.4,0.664
COc1cccc(OCC(=O)NN=C2c3ccccc3-c3ccccc32)c1,0.2,.,27.0,-3.5,.,-3.4,.,.,.,0.7
COc1cc(C[C@@H]2C(=O)OC[C@H]2Cc2ccc(OC)c(OC)c2)ccc1O,-0.7,-12.9,.,2.6,i,66.7,2.9,-11.1,-19.4,0.815
CN(C)c1cccc(C(=O)N2CCCC(CCC(=O)NCc3ccccc3F)C2)c1 (stereo not given),-0.5,6.3,-10.8,-3.6,i,-0.9,-1.8,2.8,-0.3,0.636
C=CCSc1nnc(CNS(=O)(=O)c2ccc(C)cc2)n1C,-2.1,9.5,-7.7,0.7,i,-1.6,1.3,0.6,0.2,0.723
COCCn1c(=O)[nH]c(=O)c2cc(C(=O)c3cc(OC)ccc3O)cnc21,0.1,-0.7,10.9,-0.7,i,-2.3,-11.5,-0.4,12.8,0.651
O=[N+]([O-])c1ccc(O)c(C=Nc2ccc3nc(-c4ccccc4)[nH]c3c2)c1,-5.3,12.1,-0.4,-267.1,i,9.9,8.4,20.9,8.6,0.664
COCC(=O)N1CCC(n2nnc3cc(F)ccc32)CC1,1.3,.,-0.6,4.4,.,-6.8,.,.,.,0.705
COc1ccc(C2CC(c3cccs3)=NN2C(=O)COC(=O)C2CCCCC2)cc1OC (stereo not given),0.5,2.2,-0.6,-24.9,i,-4.2,13.7,-11.1,2.4,0.706
CCc1ccc(N2C(=O)C3CCCN3C2=S)cc1 (stereo not given),-0.2,0.2,-14.7,1.9,i,3.1,4.5,10.9,-5.1,0.71
COC(=O)c1cc(NS(=O)(=O)c2ccc(N3CCC(C)CC3)c([N+](=O)[O-])c2)cc(C(=O)OC)c1,0.0,2.3,5.0,0.9,i,.,1.7,0.6,2.3,0.708
Cc1cccc(OCc2nnc(SCC(=O)NC3CCCC3)n2C)c1,0.3,4.1,0.8,1.6,i,1.8,-1.5,5.1,-0.8,0.654
CS(=O)(=O)NCc1ccc(C(=O)NC2CCCCC2)cc1,0.3,.,-12.4,3.5,.,-7.5,.,.,.,0.704
CC(C)(C)C(=O)CNCC(=O)C(C)(C)C,0.1,14.1,-11.0,2.7,i,0.3,0.7,12.2,2.8,0.733
O=C(N/N=C/C=C\c1ccccc1[N+](=O)[O-])c1ccncc1,1.9,20.0,-17.8,.,i,.,2.0,13.1,2.0,.
CCO[C@@H]1OC(C(N)=O)=C[C@H](C(C)(C)C)[C@H]1CCCO,0.2,12.2,-4.6,3.3,i,2.0,-1.9,1.1,11.4,.
COc1cc([N+](=O)[O-])ccc1NC(=O)COC(=O)c1n[nH]c2ccccc12,-0.7,.,1.6,5.2,.,-2.8,.,.,.,0.675
CCC(C)[C@H](NC(=O)NCc1ccccn1)C(=O)OC (stereo not given in full),-0.5,13.4,-11.4,1.6,i,-9.4,3.5,7.1,-8.8,0.756
NCCCC[C@@H]1NC(=O)c2cc([N+](=O)[O-])cc(F)c2NCCCC[C@@H](C(N)=O)NC(=O)[C@H](CCC(N)=O)NC1=O,0.1,11.0,-15.5,8.0,i,-4.4,27.1*,3.6,4.3,.
COc1ccc(OC)c(NC(=O)CN2C(=O)NC(C)(c3ccc4c(c3)OCCO4)C2=O)c1 (stereo not given),-0.1,-1.6,.,-0.1,i,-3.1,-0.1,-4.5,-1.5,0.695
COC(=O)c1cc(OC)c(OC)cc1N=CC1=C(O)CC(C)(C)CC1=O,0.3,.,-3.9,10.1,.,-6.5,.,.,.,0.786
